MITF inhib: inhibitors of MITF, primary screen, MITF inhibitor project, cell-based, luminescence; actives 0.28% (n = 37,000); TRPM1 promoter luciferase, 24 h; inhibition, % (no concentration beside the values);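 active = most replicates at 85% or more, or half of them and the mean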;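 also: human melanocyte line stably carrying TRPM1 promoter luciferase reporter; 0% = vehicle wells and 100% = a positive control; the first replicate is given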
* marks the source's active call; other numbers are inactive results.

no.	Structure	MITF inhib
1	Cc1ccc(N(C(C)C(=O)Nc2ccc(I)cc2)S(C)(=O)=O)cc1C (stereo not drawn)	15
2	Cc1ccc([N+](=O)[O-])cc1NC(=O)CSc1nnc(-c2ccncc2)n1C	-1
3	CCOC(=O)c1sc(NC(=O)CSc2ccccn2)c(C#N)c1C	-7
4	CSc1cccc(NC(=O)CSc2nnc(-c3cccc(C)c3)o2)c1	-43
5	COc1ccc(NC(=O)CSc2nc3sc4c(c3c(=O)n2-c2ccccc2)CCC4)c([N+](=O)[O-])c1	1
6	O=C(CSc1n[nH]c(-c2ccc(Cl)cc2Cl)n1)Nc1cccc(C(F)(F)F)c1	24
7	c1ccc(Cn2c3ccccc3n3c(SCc4nc5ccccc5[nH]4)nnc23)cc1	15
8	O=C(O)CCSc1nc(-c2ccccc2)c(-c2ccccc2)[nH]1	9
9	COc1ccc(-n2c(SCC(=O)Nc3ccc(C(N)=O)cc3)nc3sc4c(c3c2=O)CCCC4)cc1	1
10	Cc1ccnc(SCC(=O)n2c3c(c4ccccc42)CC(C)CC3)n1 (stereo not drawn)	-22
11	CCC(CO)NS(=O)(=O)c1ccc(OC)c(-c2nnc3c4ccccc4c(C)nn23)c1 (stereo not drawn)	-7
12	CCOc1ccccc1NC(=O)c1ccccc1N(C)S(=O)(=O)c1ccc(C)cc1	4

The list goes on.
no.	Structure	MITF inhib
13	COc1cc(OC)c(NC(=O)CS(=O)(=O)c2ccccc2)cc1Cl	-35
14	Cc1ccccc1NC(=O)CSc1nc(N)c2c3c(sc2n1)COC(C)(C)C3	18
15	CNC(=O)CN(c1cc([N+](=O)[O-])ccc1C)S(C)(=O)=O	6
16	COC(=O)c1cccc(NC(=O)C(C(C)C)N2C(=O)c3ccccc3C2=O)c1 (stereo not drawn)	-7
17	Cc1c(C(=O)OC(C)C)sc2ncn(CC(=O)Nc3ccccc3C(F)(F)F)c(=O)c12	-5
18	Cc1cc(C)c2nc(-c3cccnc3)cc(C(=O)Nc3c(C)nn(Cc4ccccc4C)c3C)c2c1	-21
19	COC(=O)c1ccc(CSc2n[nH]c(-c3ccccc3OC)n2)o1	25
20	O=c1[nH]c(SCc2ccccc2[N+](=O)[O-])nc2ccccc12	-2
21	CC(=O)c1cccc(NC(=O)CN2C(=O)COc3ccc(Cl)cc32)c1	12
22	Cc1cc(OCC(=O)Nc2ccc(O)c(-c3nc4ccccc4s3)c2)ccc1Cl	25
23	COc1ccc(C)cc1NC(=O)CS(=O)(=O)c1ccccc1	-45
24	O=C(COc1ccccc1)Nc1ncc2c(n1)CCCC2=O	-23

Following part:
no.	Structure	MITF inhib
25	Cc1ccccc1C(=O)Nc1ccc2nc(SCC(=O)Nc3ccc([N+](=O)[O-])cc3)sc2c1	33
26	CC(=O)c1cccc(NC(=O)CCN2C(=O)c3ccccc3C2=O)c1	-1
27	COc1ccc([N+](=O)[O-])cc1N(CC(=O)Nc1cc(Cl)ccc1Cl)S(C)(=O)=O	7
28	Cc1[nH]c(=O)[nH]c(=O)c1NS(=O)(=O)c1ccc2c(c1)CCCC2	-1
29	N#CCCn1c(CC(N)=O)nc2ccccc21	-1
30	Cc1cc2c(=O)n(Cc3ccco3)c(SCC(=O)c3cc4ccccc4o3)nc2s1	32
31	COc1ccc(-c2nc(SCC(=O)Nc3c(F)cc(F)cc3Br)n[nH]2)cc1	20
32	OC(CN1CCOCC1)Cn1c2ccccc2c2ccccc21 (stereo not drawn)	-18
33	COc1ccc(S(=O)(=O)N(CC(=O)N2CCOCC2)C2CCCCC2)cc1OC	-17
34	O=[N+]([O-])c1ccc(N2CCN(S(=O)(=O)c3cccs3)CC2)cc1NCc1ccco1	-5
35	NC(=O)c1ccc(-n2nnnc2SCC(=O)Nc2ccccc2-c2ccccc2)cc1	16
36	c1ccc(Oc2cccc(OCCCn3cncn3)c2)cc1	-19

Next records:
no.	Structure	MITF inhib
37	O=C(CN1C(=O)c2cccc3cccc1c23)Nc1ccccc1C(=O)N1CCOCC1	-3
38	COc1ccc(OCC(=O)Nc2ccc(OC)cc2[N+](=O)[O-])cc1	-38
39	COc1ccc(Br)cc1C(Nc1ccccn1)c1cc(Cl)c2cccnc2c1O (stereo not drawn)	51
40	COc1ccccc1CNC(=O)c1cc(-c2ccccn2)nc2c(Cl)cccc12	47
41	Cc1cccc(OCCCC(=O)Nc2sc3c(c2C(N)=O)CCCC3)c1C	-13
42	COC(=O)c1c(NC(=O)c2ccc(NS(C)(=O)=O)cc2)sc2c1CCCC2	-7
43	CCOC(=O)Nc1ccc2c(c1)N(C(=O)CCN1CCOCC1)c1ccccc1CC2	-2
44	CCn1c(SCC(=O)Nc2ccccc2F)nnc1-c1ccccc1F	2
45	CC(C)c1ccc(OCC(=O)Nc2cc(C(F)(F)F)ccc2N2CCOCC2)cc1	-12
46	COCc1nc2ccccc2n1CCOc1ccc(Br)cc1	-22
47	COc1cc(C(Nc2ccccn2)c2cc(Cl)c3cccnc3c2O)cc(Br)c1O (stereo not drawn)	-3
48	NS(=O)(=O)c1ccc(CCNC(=O)c2cc(-c3cccnc3)nc3ccc(Br)cc23)cc1	-35

Entries from the list above that contain an NH in an aromatic ring (7):
no.	Structure	MITF inhib
6	O=C(CSc1n[nH]c(-c2ccc(Cl)cc2Cl)n1)Nc1cccc(C(F)(F)F)c1	24
7	c1ccc(Cn2c3ccccc3n3c(SCc4nc5ccccc5[nH]4)nnc23)cc1	15
8	O=C(O)CCSc1nc(-c2ccccc2)c(-c2ccccc2)[nH]1	9
19	COC(=O)c1ccc(CSc2n[nH]c(-c3ccccc3OC)n2)o1	25
20	O=c1[nH]c(SCc2ccccc2[N+](=O)[O-])nc2ccccc12	-2
28	Cc1[nH]c(=O)[nH]c(=O)c1NS(=O)(=O)c1ccc2c(c1)CCCC2	-1
31	COc1ccc(-c2nc(SCC(=O)Nc3c(F)cc(F)cc3Br)n[nH]2)cc1	20

(listing goes on)
no.	Structure	MITF inhib
49	Cn1c(SCC(=O)Nc2cccc(F)c2)nnc1-c1cc2ccccc2o1	-16
50	Cc1ccc(OCCn2cncn2)c([N+](=O)[O-])c1	-24
51	Cc1nc(SCC(=O)Nc2ccc(I)cc2)nc2c1CCCC2	5
52	COc1cc2c(cc1NC(=O)C(C)Oc1ccccc1C)oc1ccccc12 (stereo not drawn)	-80
53	CCN(CC(=O)Nc1cccc(F)c1)S(=O)(=O)c1ccc(Cl)cc1	21
54	COc1ccc(CNCCCN2CCOCC2)cc1OC	-12
55	COc1cc(C)c(Br)cc1S(=O)(=O)NCC1CCCO1 (stereo not drawn)	-36
56	O=C(CC1NC2CCCCC2NC1=O)Nc1ccc2c(c1)OCCO2 (stereo not drawn)	-12
57	O=S(=O)(c1ccccc1)c1nc(-c2ccccc2Cl)oc1NCc1cccnc1	-7
58	O=C(CSC1CC(=O)N(c2ccccc2)C1=O)Nc1ccc(Cl)c(Cl)c1 (stereo not drawn)	0
59	CC(O)c1nc2ccccc2n1CCOc1ccc(F)cc1 (stereo not drawn)	1
60	COc1ccc(-c2nc3ccccc3s2)cc1NC(=O)COc1ccccc1[N+](=O)[O-]	-1

Further entries follow.
no.	Structure	MITF inhib
61	CC(=O)CCc1c(C)[nH]c2ccc(NC(C)=O)cc2c1=O	3
62	COc1cc(C(Nc2ccccn2)c2cc(Cl)c3cccnc3c2O)cc(I)c1O (stereo not drawn)	15
63	CC1(C)CC(=O)c2c(O)cc(OCC(=O)c3ccc(Cl)c(Cl)c3)cc2O1	-35
64	CN1CCN(CCCn2nnc3c(=O)oc4ccccc4c32)CC1	-16
65	Cc1cccc(OCC(=O)Nc2ccc3oc(-c4cncc(Br)c4)nc3c2)c1C	-27
66	O=C(CCSc1nc2ccccc2s1)N1CCOCC1	-22
67	COc1ccc(-c2cc(C(=O)N3CCCC3C(=O)O)c(C)o2)cc1OC (stereo not drawn)	-50
68	COc1ccc(CNC(=O)C2CCCCC2C(=O)O)cc1 (stereo not drawn)	-16
69	CCOC(=O)c1cc(NC(=O)CSc2nc3ccccc3c(=O)[nH]2)ccc1Cl	8
70	COC(=O)c1ccc(NC(=O)CCn2nc(-c3ccccc3)c3ccccc3c2=O)cc1	12
71	Cc1ccc(NC(=O)CSc2nnc(-c3ccc(C)c(Cl)c3)n2C)cc1Cl	38
72	COc1ccc(NC(=O)C(=O)NCC(=O)Nc2ccc(C)c(Cl)c2)cc1	-16

Pulled by compound from the entries so far:
no.	Structure	MITF inhib
65	Cc1cccc(OCC(=O)Nc2ccc3oc(-c4cncc(Br)c4)nc3c2)c1C	-27
61	CC(=O)CCc1c(C)[nH]c2ccc(NC(C)=O)cc2c1=O	3

Returning to the listing with the seven entries that preceded the break.
no.	Structure	MITF inhib
66	O=C(CCSc1nc2ccccc2s1)N1CCOCC1	-22
67	COc1ccc(-c2cc(C(=O)N3CCCC3C(=O)O)c(C)o2)cc1OC (stereo not drawn)	-50
68	COc1ccc(CNC(=O)C2CCCCC2C(=O)O)cc1 (stereo not drawn)	-16
69	CCOC(=O)c1cc(NC(=O)CSc2nc3ccccc3c(=O)[nH]2)ccc1Cl	8
70	COC(=O)c1ccc(NC(=O)CCn2nc(-c3ccccc3)c3ccccc3c2=O)cc1	12
71	Cc1ccc(NC(=O)CSc2nnc(-c3ccc(C)c(Cl)c3)n2C)cc1Cl	38
72	COc1ccc(NC(=O)C(=O)NCC(=O)Nc2ccc(C)c(Cl)c2)cc1	-16
73	O=C(CSc1nc(-c2ccc(Cl)cc2)cs1)Nc1cccc([N+](=O)[O-])c1	-3
74	COCC(O)CSc1nc(C)[nH]c1[N+](=O)[O-] (stereo not drawn)	-2
75	O=C(NCCN1CCOCC1)c1ccc(NC(=O)C2COc3ccccc3O2)cc1 (stereo not drawn)	-8
76	COc1ccc(NC(=O)c2ccco2)cc1NC(=O)C(C)(C)Oc1ccc(Cl)cc1	16
77	COc1ccc(-c2nnc(SCCC(=O)O)n2C)cc1OC	6
78	CCOC(=O)C1CCCCN1Cc1ccco1 (stereo not drawn)	9
79	COc1ccc(NC(=S)NCc2cccnc2)cc1OC	7
80	O=C(NCCCN1CCOCC1)c1cccc([N+](=O)[O-])c1	-4
81	CCC(=O)c1ccc(OCC(O)Cn2nc(C)cc2C)cc1 (stereo not drawn)	-7
82	O=C(NCCCN1CCOCC1)c1ccc2nc(-c3ccccc3)c(-c3ccccc3)nc2c1	-18
83	COc1ccc(CN2CCCC2C(=O)Nc2ccc(OC)c(OC)c2)cc1OC (stereo not drawn)	10
84	O=C(CSc1nnc(-c2ccc(Br)cc2)o1)Nc1ccc(Cl)c(Cl)c1	-8

For convenience, 2 of the compounds above.
no.	Structure	MITF inhib
75	O=C(NCCN1CCOCC1)c1ccc(NC(=O)C2COc3ccccc3O2)cc1 (stereo not drawn)	-8
76	COc1ccc(NC(=O)c2ccco2)cc1NC(=O)C(C)(C)Oc1ccc(Cl)cc1	16

Other records
no.	Structure	MITF inhib
85	O=C(Nc1ccccc1)c1ccc(Br)c(S(=O)(=O)Nc2ccccn2)c1	-15
86	Cc1ccc([N+](=O)[O-])cc1NC(=O)Cn1cnc2ccccc2c1=O	-4
87	Nc1cc(=O)[nH]c(SCC(=O)NCc2ccco2)n1	-1
88	COc1ccccc1NC(=O)CSC1CC(=O)N(c2ccc(C)cc2)C1=O (stereo not drawn)	12
89	O=C(CSc1nc2ccccc2c(=O)[nH]1)Nc1cccc([N+](=O)[O-])c1	0
90	Cc1oc(-c2cc(Cl)cc(Cl)c2)cc1C(=O)NCc1ccco1	-5
91	Cc1ccc(C(C)C)c(OCCSc2ncnc3nc[nH]c23)c1	46
92	COC(=O)c1c(NC(=O)c2cc(-c3ccccn3)nc3ccc(Br)cc23)sc(C(=O)N(C)C)c1C	13
93	O=C(NC1CCCC1)c1c(NC(=O)c2cc(-c3cccnc3)nc3ccccc23)sc2c1CCCC2	2
94	O=C(CSc1nnc(-c2cccc(Cl)c2)n1-c1ccccc1)Nc1ccccc1	-18
95	NS(=O)(=O)c1ccc(NC(=O)CSc2ncnc3sc4c(c23)CCCCC4)cc1	12
96	CCOC(=O)c1c(NC(=O)C2CC(c3ccccc3Cl)=NO2)sc(C)c1C (stereo not drawn)	-15

Other results.
no.	Structure	MITF inhib
97	COc1ccc(-c2nn(-c3ccccc3)cc2C(=O)NCC(=O)c2ccccc2)cc1OC	-37
98	COc1cccc(OCC(=O)Nc2ccccc2[N+](=O)[O-])c1	-76
99	Cc1c(Cl)c(C)c(Cl)c(OCC(=O)Nc2ccccc2N2CCOCC2)c1Cl	8
100	Cc1ccc(-n2c(SCC(=O)Nc3ccc(C(N)=O)cc3)nnc2-c2ccc(Cl)cc2)cc1	4
101	O=C(COc1ccc(C(=O)Nc2cccc(C(F)(F)F)c2)cc1)Nc1cccc(Cl)c1	-15
102	O=c1[nH]c(CSCCO)nc2c1C1(CCCCC1)Cc1ccccc1-2	-24
103	COC(=O)c1c(NC(=O)CCC(=O)O)sc2c1CC(C)(C)OC2	-10
104	O=C(CCCOc1ccc(Cl)cc1Cl)Nc1ccncc1	-30
105	CCn1c(SCC(=O)c2cccc([N+](=O)[O-])c2)nnc1-c1cccnc1	-6
106	O=C(Nc1ccccc1C(=O)NCc1ccco1)c1ccc(-c2ccccc2)cc1	12

Compound activity as filed in PubChem.

An excerpt; the hit share may differ from the screen's.
